Bioassay records (PubChem BioAssay)
ALR inh: inhibitors of human sulfhydryl oxidase ALR; P55789; purified ALR, DTT oxidation, H2O2 HRP-luminol luminescence; inhibition, % (no concentration beside the values); actives 3.8% (n = 290,000); AID 485317;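 active = mean and each replicate at 75% or more; inconclusive = only one of the two met; inactive = neither met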;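 note: stock transfer was 7.5 nL into about 7.5 µL; 0% = neutral wells and 100% = wells with inactivated enzyme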
Target sequence (P55789 whole entry, looked up): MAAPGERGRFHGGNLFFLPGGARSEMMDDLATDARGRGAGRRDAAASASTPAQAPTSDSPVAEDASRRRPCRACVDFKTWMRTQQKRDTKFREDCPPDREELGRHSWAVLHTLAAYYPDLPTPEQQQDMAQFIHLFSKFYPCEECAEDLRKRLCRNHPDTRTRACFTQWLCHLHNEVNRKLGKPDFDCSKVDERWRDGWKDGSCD
Calb FLC: affects C. albicans growth with fluconazole; C. albicans CaCi-2 (fluconazole-resistant clinical isolate) + fluconazole, Alamar Blue growth, 48 h; growth inhibition, % (no concentration beside the values); actives 0.57% (n = 300,000);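 active = most replicates above 75%; inconclusive = exactly half above 75%; inactive = most below 75%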;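 note: all wells also contain fluconazole at 8 µg/ml as a sub-toxic cotreatment; 0% = median of DMSO wells and 100% = median of geldanamycin control wells; wells of about 8 µL received 7.5 nL stock; the first replicate is given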
FGF22 binding: binders of recombinant human FGF22 by thermal shift; Q9HCT0; SYPRO orange fluorescence; percent of sucrose octasulfate shift, DMSO zero; calls only at 9.99 µM; actives 1.5% (n = 340,000);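 active = melting point raised past a set limit in the mean and every replicate; inconclusive = no clear call; three in four hits are not shown here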
Target sequence (Q9HCT0 whole entry, looked up): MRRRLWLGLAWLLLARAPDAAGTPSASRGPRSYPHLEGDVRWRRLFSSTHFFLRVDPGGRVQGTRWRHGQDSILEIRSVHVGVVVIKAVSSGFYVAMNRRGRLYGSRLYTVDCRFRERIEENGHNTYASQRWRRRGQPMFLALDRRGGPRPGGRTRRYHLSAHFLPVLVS
Beta cell apopt: blocks beta cell apoptosis | INS-1E cytokine-induced death, ATP luminescence, 48 h; percent of positive-control rescue, neutral wells zero | protection from apoptosis, % (no concentration beside the values) | actives 0.8% (n = 300,000) | AID 435005;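 active = all replicates at 75% or more, or half of them and the mean; inconclusive = half reach 75% but not the mean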;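 note: 0% = cytokine-treated negative control wells and 100% = positive control rescue; higher means more ATP so stronger rescue from cytokine killing; wells of about 40 µL received 100 nL stock; the first replicate is given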
MLL AF4-AF9 inh: MLL-AF4/AF9 protein interaction inhibition. actives 0.47% (n = 350,000). inhibition, % at 10 µM. AlphaScreen, biotin-AF4 peptide binding to FLAG-AF9. AID 651704;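 active = every replicate reaching a set inhibition limit, whatever the replicate mean, cut at about 25% in these data; inconclusive = mean inhibition reaches that limit but some replicates miss it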;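 note: 0% = plate neutral control median and 100% = total signal loss; the record names both 10 and 1 µM as test concentration; the first replicate is given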
Target sequence (P42568 whole entry, looked up): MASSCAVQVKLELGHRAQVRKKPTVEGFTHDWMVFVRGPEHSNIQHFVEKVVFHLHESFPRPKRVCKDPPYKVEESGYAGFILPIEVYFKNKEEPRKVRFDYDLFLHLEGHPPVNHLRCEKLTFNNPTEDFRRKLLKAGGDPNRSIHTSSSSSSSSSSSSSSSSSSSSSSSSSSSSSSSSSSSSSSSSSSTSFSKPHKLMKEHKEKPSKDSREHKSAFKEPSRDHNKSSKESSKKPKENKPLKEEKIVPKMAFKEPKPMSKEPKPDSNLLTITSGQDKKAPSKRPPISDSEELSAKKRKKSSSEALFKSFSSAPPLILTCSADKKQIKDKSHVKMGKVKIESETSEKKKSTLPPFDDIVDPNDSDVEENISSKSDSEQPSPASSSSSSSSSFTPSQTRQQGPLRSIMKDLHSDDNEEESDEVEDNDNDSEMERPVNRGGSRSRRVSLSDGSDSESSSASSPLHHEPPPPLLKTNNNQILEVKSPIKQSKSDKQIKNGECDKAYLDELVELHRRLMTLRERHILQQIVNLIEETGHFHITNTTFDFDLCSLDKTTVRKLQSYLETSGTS
T cruzi inh: blocks replication of Trypanosoma cruzi | T. cruzi beta-gal in NIH3T3, luminescence, 90 h | inhibition, % (test concentration not listed) | actives 1.4% (n = 300,000) | AID 1885;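 active = mean inhibition across valid replicates above about 55%, limit read from the data; inconclusive = mean below that limit but half or more replicates reach it; inactive = mean below it, under half of replicates reach it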;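 note: signal also drops with host cell toxicity which is not excluded here; 0% = plate median of DMSO wells and 100% = zero luminescence signal; higher percent means less beta-gal luminescence so fewer parasites; stock transfer was 50 nL into about 50 µL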
rRNA inh HTS: inhibits bacterial ribosomal RNA function over humanized ribosomes; E. coli WT GFP vs humanized-ribosome RFP mutants, fluorescence, 24 h; stronger effect = lower value; DMSO median 0, no signal -100; GFP signal change (wild-type ribosome), % (test concentration not listed); actives 1.6% (n = 350,000); AID 720706;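 active = significant combined selectivity score with lowered wild-type GFP, culture density cut under 30%, mutant RFP and density less affected; inactive = any of these conditions unmet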; note: one replicate is shown; some compounds called inactive have numbers as strong as hits
RanGTP-Impb inh: disruptors of Ran-importin-beta complex formation – biochemical, FRET, CFP-Ran, YFP-importin-beta, homogeneous, primary screen. cell-free CFP-Ran/YFP-importin-beta FRET ratio. actives 1.1% (n = 300,000). inhibition, % (test concentration not listed). AID 2216;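 active = most replicates above 15%; inconclusive = exactly half above 15%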;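 note: 0% = DMSO wells and 100% = Ran loaded with GDP instead of GTP; wells of about 40 µL received 100 nL stock; the first replicate is given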
rRNA inh HTS OD600: recorded beside rRNA inh HTS, whose call it bears; OD600 change, %; measured here: OD600 growth;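 optical density of the mix in the first replicate; 0 = DMSO median and -100 = no signal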
rRNA inh HTS RFP: further read-out of rRNA inh HTS, marked with its call; RFP signal change, %; measured here: RFP humanized mutant strains;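 first replicate; 0 = DMSO median and -100 = no signal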
* marks the source's active call; other numbers are inactive results; i = inactive; ? = inconclusive; . = not tested or not shown; + = active, no number. An excerpt (hit frequency here may not be typical).

structure	ALR inh	Calb FLC	FGF22 binding	Beta cell apopt	MLL AF4-AF9 inh	T cruzi inh	rRNA inh HTS	rRNA inh HTS OD600	rRNA inh HTS RFP	RanGTP-Impb inh
CCOc1ncccc1C(=O)OCC(=O)Nc1cccc(S(=O)(=O)N2CCCCCC2)c1	0.1	.	i	4.1	-4.0	.	-33.2	-48.0	-8.5	.
CCN(CC)CCN1C(=O)C(=O)/C(=C(/O)c2ccc(S(=O)(=O)N3CCOCC3)cc2)C1c1ccc(C(C)C)cc1 (stereo not drawn)	3.1	1.7	i	1.2	0.9	-11.3	3.2	8.5	-0.8	-0.7
O=C(c1ccc(F)cc1)N1CCCC(c2nc(-c3cccs3)no2)C1 (stereo not drawn)	-8.9	12.6	i	0.7	-3.2	-7.8	-21.5	-20.8	-6.3	4.0
COc1ccc(C(=O)n2nc(-c3ccc(C)cc3)nc2N)cc1OC	-5.1	-1.4	.	-2.1	.	9.6	12.2	21.8	-2.7	3.0
Cc1cccc(NC(=S)N(CCCN2CCOCC2)Cc2ccccn2)c1	-2.6	-2.2	.	-4.6	.	-19.8	.	.	.	?
CCCC(C(=O)NCC1CCCO1)N(C(=O)CNS(=O)(=O)c1ccccc1)c1ccc(F)cc1 (stereo not drawn)	.	9.7	i	-23.8	-0.6	9.0	2.0	10.3	-0.2	3.6
Cc1cnc(NC(=O)c2sc3ccccc3c2Cl)s1	-2.4	8.6	i	1.4	1.2	-39.3	7.6	9.7	-0.7	-1.2
C=CCNC(=O)COC(=O)c1c2c(nc3ccccc13)CCC2	-9.5	-0.1	i	-1.9	1.1	-9.4	-2.7	1.6	0.3	-0.9
O=C(Nc1cccc(-c2ccc(N3CCCCC3)nn2)c1)c1ccc(Br)o1	.	27.8	i	17.9	-0.9	19.3	-14.4	-24.9	13.8	-2.1
CCCCN(C)C(=O)C1CCN(Cc2ccc(OCc3ccccc3)cc2)CC1	0.1	-13.0	.	-3.0	.	29.2	.	.	.	0.1
COc1ccc(-n2cnnc2SCC(=O)NC2CCCc3ccccc32)cc1 (stereo not drawn)	-1.6	-15.5	i	-5.4	0.2	-12.4	-9.8	-12.8	-1.3	?
Cc1ccc(NC(=O)c2ccc(=O)[nH]n2)cc1S(=O)(=O)Nc1ccccc1Cl	0.2	.	i	3.5	1.0	.	.	.	.	.
CC1CCN(c2ccc(C(=O)Nc3ccc4c(c3)OCO4)cc2[N+](=O)[O-])CC1	-5.5	6.3	i	12.8	9.7	25.2	-28.2	-35.1	-6.2	-2.0
COc1ccc(N(C)S(=O)(=O)c2cccc(C(=O)NCc3ccc(C)cc3)c2)cc1	1.0	.	i	-2.3	-1.0	.	-3.6	-21.2	-3.4	.
O=C(O)C1Cc2[nH]cnc2C(c2cccc([N+](=O)[O-])c2)N1 (stereo not drawn)	-0.8	-0.5	i	6.8	-1.2	-6.9	9.4	7.2	0.2	2.5
COc1ccc(Nc2nc(-c3cccs3)nc3ccccc23)c(OC)c1	-18.2	48.5	.	5.9	.	49.2	.	.	.	-0.4
COc1ccc(Nc2cc(C)nc3nc(C)nn23)cc1Cl	-22.2	-14.4	i	3.0	-4.7	1.8	1.1	-1.5	-1.4	3.8
c1ccc(SCc2nc(-c3cccnc3)no2)cc1	-13.4	?	.	-5.5	.	0.8	.	.	.	0.5
Cn1c(CC(=O)Nc2ccccc2F)nnc1SCC(=O)NC1CCCCC1	7.6	-14.4	i	3.6	-1.2	-4.8	5.9	10.1	-3.3	2.2
COc1ccccc1CNC(=O)c1ccc(N(C)S(=O)(=O)c2ccc(C)cc2)cc1	-2.1	.	i	20.5	-17.7	24.8	9.7	15.3	1.1	.
CCc1cccc(CC)c1NC(=O)COC(=O)Cc1ccsc1	-4.3	12.2	i	-1.4	-1.7	1.5	8.1	5.0	-1.9	6.6
CCOC(=O)C1=NN(c2ccccc2)C(=O)/C1=C\c1ccc(N(C)C)cc1	?	-19.6	.	-19.0	.	-8.5	.	.	.	-2.3
COc1ccc(-c2sc3cc(OC)c(OC)cc3c2C#CC2(O)CCCCC2)cc1	-0.1	.	i	1.5	11.2	.	9.1	0.1	-2.1	.
Cc1ccc([C@H]2C(C#N)=C(N)Oc3cc(C)oc(=O)c32)o1	16.4	9.2	i	-9.4	-1.3	-16.5	12.6	9.9	9.2	-1.2
O=C(COc1ccc2c3c(c(=O)oc2c1)CCC3)NCCN1CCOCC1	1.4	-8.1	i	1.5	-2.6	-14.9	11.3	4.1	1.0	1.9
CCOc1ccc(NC(=O)C2CCCN(C(=O)NCc3ccccc3)C2)cc1 (stereo not drawn)	12.2	-16.9	.	0.5	.	4.2	.	.	.	-2.6
C/C(=N\NC(=O)NC1CCCCC1)c1ccco1	13.8	6.2	i	-4.1	3.0	-7.8	-7.1	-10.7	-2.3	-0.8
O=C(Nc1ccccc1C(=O)NCCCn1ccnc1)c1ccc(Cl)cc1Cl	0.5	9.0	.	-5.6	.	18.5	.	.	.	0.6
O=C(CCNC(=O)Cn1ccc2ccccc2c1=O)NCCCN1CCN(c2ccccc2F)CC1	1.0	5.8	.	0.7	.	-16.1	.	.	.	3.9
CCC(C)NC(=O)c1ccc2c(c1)N(Cc1ccccc1)C(=O)CS2 (stereo not drawn)	-34.6	-5.4	i	0.5	0.1	-3.1	1.6	-1.6	-10.1	0.4
CC1CCCCN1CCNC(=O)c1ccc2c(c1)N(Cc1ccccc1F)C(=O)c1ccccc1S2=O (stereo not drawn)	-14.2	1.6	i	-2.4	3.3	13.7	1.1	0.4	3.3	-0.2
CC(=O)Nc1cc(-c2nn(CC(=O)N3CCCCC3)c(=O)c3ccccc23)ccc1N1CCOCC1	5.6	6.2	.	-10.6	.	6.4	.	.	.	1.3
CC(=O)Nc1ccc(NC(=O)C(C)OC(=O)CCN=C2NS(=O)(=O)c3ccccc32)cc1 (stereo not drawn)	0.9	-3.6	i	-3.0	-1.4	-7.7	6.3	10.5	-0.2	-1.6
COc1cccc(C(=O)CN(C(=O)c2ccc(Cl)c(Cl)c2)N2C(=O)c3ccccc3C2=O)c1	4.9	21.9	i	-8.2	3.3	0.0	-1.4	1.4	-9.0	-0.2
Cc1cc(C(=O)NCc2ccc(F)cc2)c2ccccc2n1	-5.9	-13.3	i	0.4	-1.7	-1.1	4.8	13.8	0.6	1.3
CC(C)C(c1nnnn1Cc1ccccc1)N1CCc2ccccc2C1 (stereo not drawn)	-5.7	-12.9	i	-3.9	-10.0	-8.0	-3.2	-7.0	-4.0	2.5
C(=N\Nc1nc(Nc2ccccc2)nc(Nc2ccccc2)n1)/c1ccncc1	-3.8	18.4	i	-5.1	-0.4	4.8	10.0	3.2	0.2	8.1
CCS(=O)(=O)c1ccc2oc(SCC(=O)Nc3ccc(OC)cc3OC)nc2c1	-28.7	-21.4	i	-1.6	8.2	1.2	-5.1	-8.8	-10.4	-0.4
O=C(Cc1ccccc1)NCC(=O)N/N=C/c1ccc([N+](=O)[O-])s1	.	9.8	i	-13.5	4.2	49.3	-13.3	0.7	3.4	3.1
COCCCNC(=S)N1CCC(NC(=O)Nc2ccc(C)cc2)CC1	-6.1	-8.8	i	-1.8	-1.7	2.2	2.9	5.5	-5.3	-0.1
Cc1c(C(=O)OCC(=O)NCc2ccccc2)oc2ccccc12	.	4.2	i	.	0.2	-2.1	8.4	20.5	1.8	?
CC1CCC2C(=O)N(c3ccc(Cc4ccncc4)cc3)C(=O)C2C1 (stereo not drawn)	1.1	4.2	i	8.3	0.0	-44.7	-11.6	-11.5	-3.1	?
COc1ccccc1CNC(=O)C(NC(=O)c1ccccc1)C(C)C (stereo not drawn)	-0.2	-34.3	i	-7.8	1.0	5.9	10.0	3.1	3.1	4.0
C=CCNC(=O)c1ccccc1NC(=O)c1ccc(Cl)c(S(=O)(=O)Nc2ccccc2)c1	-2.8	10.5	i	33.4	-4.6	10.3	-36.4*	-23.6*	0.1*	3.2
Cc1ccnc2nc(C(=O)N3CCN(S(=O)(=O)c4ccccc4)CC3)nn12	-11.2	5.6	.	-0.6	.	-17.3	.	.	.	-10.0
CCOc1ccc2[nH]cc(-c3csc(N)n3)c2c1	2.8	8.4	i	7.3	8.9	2.5	-7.7	-7.4	7.0	-0.4
O=C(N/N=C/c1c[nH]c2ccccc12)C1CC1c1ccccc1 (stereo not drawn)	17.1	-13.0	+	-9.2	-13.7	-1.1	-27.9*	10.6*	3.5*	6.7
O=C(CCCC(=O)OCC1CCCO1)OCC1CCCO1 (stereo not drawn)	0.7	.	.	-0.2	-6.5	-10.6	.	.	.	1.1
Cc1cccc(CSc2cn(CC(=O)N3CCOCC3)c3ccccc23)c1	9.5	12.2	i	.	3.8	-0.6	-14.4	-11.9	-2.8	?
COc1ccc(N2CCN(C(=O)CN3C(=O)NC4(CCCCCC4)C3=O)CC2)cc1	63.2	.	i	-2.3	7.3	.	.	.	.	.

(more compounds)
structure	ALR inh	Calb FLC	FGF22 binding	Beta cell apopt	MLL AF4-AF9 inh	T cruzi inh	rRNA inh HTS	rRNA inh HTS OD600	rRNA inh HTS RFP	RanGTP-Impb inh
O=C(C1CCC1)N1CCc2cc(S(=O)(=O)Nc3ccc4c(c3)OCO4)ccc21	7.7	-4.7	.	31.4	.	2.8	.	.	.	-4.5
O=C(c1ccccc1-c1ccccc1)N1CCCC1	-6.1	-4.7	.	-4.8	.	1.9	.	.	.	-1.8
O=C(/C=C/Nc1ccc(Oc2ccccc2Cl)cc1)c1ccco1	23.7	-18.3	i	.	5.6	30.2	-23.7	-27.5	-5.2	-7.5
CC1CC(C)CN(C(=S)Nc2ccc(OC(F)F)cc2)C1 (stereo not drawn)	-2.3	-7.9	i	3.3	-0.7	-18.5	1.8	2.6	-1.7	?
CC1CN(S(=O)(=O)c2cccc(C(=O)N=c3sccn3C)c2)CC(C)O1 (stereo not drawn)	1.0	-0.4	i	-1.0	?	13.8	-21.0*	-7.2*	6.5*	5.8
C=CCN(Cc1nc(-c2ccccc2)no1)C(=O)c1ccc2c(c1)OCO2	-15.3	-7.4	i	.	-7.1	-0.5	-0.7	-11.4	5.0	-1.1
O=C(C[C@@H]1C/C=C\C[C@H](NC(=O)OCC2c3ccccc3-c3ccccc32)C(=O)OC[C@@H]2CCCN2C1=O)N[C@H](CO)Cc1ccccc1	-4.5	.	i	18.6	1.6	.	1.1	5.9	3.0	.
CCOC(=O)c1ccc(NC(=O)NCc2ccncc2)cc1	-0.1	7.6	.	.	.	-16.1	.	.	.	-0.4
